Screening results: PubChem, National Center for Advancing Translational Sciences (NCATS)
CtBP-E1A blk = qHTS Assay for Inhibitors of the CtBP/E1A Interaction; 340,000 compounds, 0.49% hits; AlphaScreen GST-E1A/His-CtBP binding, 1536-well; active compounds read low; control for the full effect not named in the record; CtBP / adenovirus E1A interaction (AlphaScreen); activity change, % (test concentration not listed); in the data active means activity change below about -65%; inconclusive means about -30% to -65%; inactive means above about -30%; further: on the % scale 0 is the no-effect control and ±100 the full control effect
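Protein mix (5X: 125 nM each GST-E1A, His-CtBP) was incubated with pinned compound 2 h at 37 deg C in dark, in 50 mM Tris pH 8.0 buffer with 300 mM NaCl. Glutathione donor and nickel acceptor beads followed; AlphaScreen signal read after 1 h.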
Six1-Eya2 inh = qHTS Assay for Inhibitors of the Six1/Eya2 Interaction; AlphaScreen GST-Six1/His-Eya2 binding, biochemical; active compounds read low; control for the full effect not named in the record; activity change, % (test concentration not listed); 360,000 compounds, 0.56% hits; AID 651725, 2012; in the data active = activity change below about -65%; inconclusive = about -30% to -65%; inactive = above about -30%; further: on the % scale 0 is the no-effect control and ±100 the full control effect
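Homogeneous AlphaScreen proximity assay pairing GST-Six1 with His-tagged Eya2 (added as 5X mix: 250 nM and 500 nM) in 50 mM Tris pH 8.0, 300 mM NaCl, 1 mM TCEP. Glutathione donor and nickel acceptor beads; 1 h, 37 °C, dark.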
D2 PAM = Beta-Arrestin HTS for Positive Allosteric Modulators of the Human D2 Dopamine Receptor: Potentiators | D(2) dopamine receptor (Homo sapiens), P14416 | DiscoveRx D2 beta-arrestin cells, luminescence, 90 min; 100% = 57 uM dopamine signal | potentiation, % (no concentration beside the values) | 360,000 compounds, 0.23% hits | AID 624464, 2012; active = potentiation of 50% or more; inconclusive = 30% to 50%; inactive = 30% or less;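 further: compound concentration not given in the record; tested on top of an EC20 dose of dopamine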
Target sequence (P14416 whole entry, looked up): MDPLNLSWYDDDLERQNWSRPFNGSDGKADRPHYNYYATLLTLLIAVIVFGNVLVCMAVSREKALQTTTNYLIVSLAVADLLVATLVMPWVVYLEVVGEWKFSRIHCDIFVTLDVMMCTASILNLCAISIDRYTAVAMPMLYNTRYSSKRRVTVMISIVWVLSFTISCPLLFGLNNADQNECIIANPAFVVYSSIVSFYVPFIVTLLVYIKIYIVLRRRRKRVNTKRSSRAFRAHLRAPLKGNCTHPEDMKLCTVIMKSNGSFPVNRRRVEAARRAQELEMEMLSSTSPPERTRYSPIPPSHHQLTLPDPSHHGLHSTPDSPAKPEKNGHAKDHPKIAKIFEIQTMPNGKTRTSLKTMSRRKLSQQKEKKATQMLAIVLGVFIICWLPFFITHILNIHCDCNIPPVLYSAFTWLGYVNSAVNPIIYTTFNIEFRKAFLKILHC
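PathHunter beta-arrestin assay in DiscoveRx D2 cells. Compounds were added with an EC20 of dopamine (50 nM final) for 90 min at 37 deg C. Luminescence was read 1 h after detection reagent, with 57 uM dopamine as the EC100 control.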
TRPV1 PAM = HTS Assay for Compounds that Act as Potentiators of the Vanilloid Receptor 1. Transient receptor potential cation channel subfamily V member 1 (Homo sapiens), Q8NER1. TRPV1-expressing cells, Fluo-8 calcium influx, capsaicin EC20 potentiation; host cell line not named in the record; control for the full effect not named in the record. potentiation, % at 8.33 µM. 320,000 compounds, 0.02% hits. AID 540277, 2011; active means potentiation above 80%; inconclusive means 30% to 80%; inactive means below 30%; further: 0% is about no effect
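TRPV1-expressing cells were cultured overnight at 35.5C and loaded with Fluo-8 calcium dye for 40 to 90 min at room temperature. After a 10 s baseline, compound was added and calcium influx was read kinetically for 3 min (ex 480/em 520 nm).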
TRPML1 blocker = qHTS for Inhibitors of the Human Mucolipin Transient Receptor Potential 1 (TRPML1) | TRPML1-inducible cells, Ca2+ dye fluorescence, FDSS; active compounds read low; inhibition of EC80 agonist-evoked calcium signal | 390,000 compounds, 0.02% hits | Mucolipin-1 (Homo sapiens), Q9GZU1 | activity change, negative = inhibition, % (concentration not given with the values) | AID 624415, 2012; in the data active means activity change below about -50%; inconclusive means about -30% to -50%; inactive means above about -30%;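 further: stimulus is agonist 54-4 at its EC80 concentration; on the % scale 0 is the no-effect control and ±100 the full control effect; the text of the record puts the active cut at -80%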
Target sequence (Q9GZU1 whole entry, looked up): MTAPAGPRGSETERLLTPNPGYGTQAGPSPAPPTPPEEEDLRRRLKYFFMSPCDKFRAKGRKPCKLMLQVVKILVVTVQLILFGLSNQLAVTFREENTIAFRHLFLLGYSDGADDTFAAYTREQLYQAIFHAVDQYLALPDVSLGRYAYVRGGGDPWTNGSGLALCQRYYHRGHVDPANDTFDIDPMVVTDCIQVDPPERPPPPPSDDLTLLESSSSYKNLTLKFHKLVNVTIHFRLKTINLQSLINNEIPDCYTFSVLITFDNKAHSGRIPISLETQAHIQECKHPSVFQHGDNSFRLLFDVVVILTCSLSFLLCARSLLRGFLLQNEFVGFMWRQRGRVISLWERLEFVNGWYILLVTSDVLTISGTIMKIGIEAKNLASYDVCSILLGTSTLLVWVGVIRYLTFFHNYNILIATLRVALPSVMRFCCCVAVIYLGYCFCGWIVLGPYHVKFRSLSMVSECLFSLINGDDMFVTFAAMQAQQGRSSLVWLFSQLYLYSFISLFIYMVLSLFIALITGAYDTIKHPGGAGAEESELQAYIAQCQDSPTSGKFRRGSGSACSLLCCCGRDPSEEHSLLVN
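Calcium fluorescence in TRPML1-DL cells induced overnight with Tet: a 110 s read after compound pin addition, then a 110 s antagonist read after challenge with 54-4 at 4 uM final (EC80).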
TRPML1 agonist = qHTS for Agonists of the Human Mucolipin Transient Receptor Potential 1 (TRPML1); AID 624414, 2012; TRPML1-expressing cells, Ca2+ dye fluorescence, FDSS; host cell line not named in the record; reference of the full effect not given here; 410,000 compounds, 0.12% hits; activation, % (concentration not given with the values); in the data active = activation above about 50%; inconclusive = about 30% to 50%; inactive = below about 30%; further: 0% is about no effect; the text of the record puts the active cut at 80%
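Tet-induced TRPML1-DL cells, 1,500 per well, cultured overnight, were loaded with a no-wash Ca2+ dye for 45–90 min. Calcium fluorescence was recorded on the FDSS for 110 s after compound addition, before the EC80 agonist (4 uM 54-4) was added.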
Active calls of the source: *. Not a hit list; about 0.95% have a hit in one of these screens.

Results for COc1ccc(NC(C)=O)cc1CP(=O)(c1ccccc1)c1ccccc1 ?
CtBP-E1A blk: 1.9; Six1-Eya2 inh: -4.7; D2 PAM: -2.9; TRPV1 PAM: 1.7; TRPML1 blocker: 2.1; TRPML1 agonist: 0.2

Results for CC(=O)Nc1ccc(N(C(=O)CNC(=O)c2ccco2)C(C(=O)NCc2ccco2)c2ccccc2)cc1 (stereo not given) ?
CtBP-E1A blk: -11.4; Six1-Eya2 inh: -7.7; D2 PAM: -11.6; TRPV1 PAM: -3.8; TRPML1 blocker: -15.7; TRPML1 agonist: -0.1

What do the screens show for `COc1cccc(CNS(=O)(=O)c2cc3c4c(c2)CCN4C(=O)CC3)c1`?
CtBP-E1A blk: -22.9; Six1-Eya2 inh: 7.2; D2 PAM: 21.1; TRPV1 PAM: 10.4; TRPML1 blocker: -13.7; TRPML1 agonist: -0.1

Results for CC(N)c1ccc(Cl)cc1Cl (stereo not given) ?
CtBP-E1A blk: -12.3; Six1-Eya2 inh: -15.2; D2 PAM: -15.0; TRPV1 PAM: -1.3; TRPML1 blocker: -1.5; TRPML1 agonist: 0.4

How did Cc1ccc(NC(=O)CNC(=O)c2cccs2)nc1 do in these assays?
CtBP-E1A blk: 1.5; Six1-Eya2 inh: 0.0; D2 PAM: -3.2; TRPV1 PAM: -11.8; TRPML1 blocker: -2.8; TRPML1 agonist: 0.1

How did CN1CCN(c2ccc(Cl)cc2NC(=O)CN2C(=O)NC(C)(c3ccccc3)C2=O)CC1 (stereo not given) do in these assays?
CtBP-E1A blk: -0.7; Six1-Eya2 inh: 0.3; D2 PAM: -25.0; TRPV1 PAM: 2.7; TRPML1 blocker: 3.6; TRPML1 agonist: 0.4

What do the screens show for `CC(Nc1nc(Nc2ccc(F)cc2)nc(SCC(N)=O)n1)c1ccccc1` (stereo not given)?
CtBP-E1A blk: -4.2; Six1-Eya2 inh: -10.9; D2 PAM: -8.2; TRPV1 PAM: 4.7; TRPML1 blocker: 4.0; TRPML1 agonist: -0.4

How did CCOC(=O)c1nn(-c2ccc(F)cc2)c2nc(CC(C)C)c(C#N)c(=O)n12 do in these assays?
CtBP-E1A blk: 12.5; Six1-Eya2 inh: 1.3; D2 PAM: -2.9; TRPV1 PAM: 10.3; TRPML1 blocker: 5.8; TRPML1 agonist: 4.4

How did COC(=O)c1cc(-c2ccc(F)cc2)n(-c2ccccc2)n1 do in these assays?
CtBP-E1A blk: 9.9; Six1-Eya2 inh: 11.9; D2 PAM: 2.8; TRPV1 PAM: 11.4; TRPML1 blocker: 34.9; TRPML1 agonist: 2.5

Results for CCN(CC)c1ccc(/C=N/n2c(C)nc3ccccc3c2=O)cc1 ?
Six1-Eya2 inh: -13.4; D2 PAM: 23.1; TRPV1 PAM: -3.8; TRPML1 blocker: 16.2; TRPML1 agonist: -0.4

What do the screens show for `COC(=O)Oc1ccc(/C=N/NC(=O)CSCc2ccccc2Br)cc1OC`?
CtBP-E1A blk: -18.3; Six1-Eya2 inh: inconclusive; D2 PAM: 8.5; TRPV1 PAM: 5.3; TRPML1 blocker: -4.2; TRPML1 agonist: -0.5

How did Cc1cccc(NC(=O)NNC(=O)c2ccc(C)c([N+](=O)[O-])c2)c1 do in these assays?
CtBP-E1A blk: 8.2; Six1-Eya2 inh: 0.1; D2 PAM: -8.4; TRPV1 PAM: 19.6; TRPML1 blocker: 1.9; TRPML1 agonist: -0.5

What do the screens show for `CCOC(=O)Cn1c2ccccc2n2nc(CCC(=O)O)c(=O)nc12`?
CtBP-E1A blk: 13.6; Six1-Eya2 inh: -4.5; D2 PAM: 3.4; TRPV1 PAM: -11.0; TRPML1 blocker: 14.1; TRPML1 agonist: -0.7

What do the screens show for `Cc1ccc(S(=O)(=O)Nc2ccc(N3CCCCC3)cc2)cc1`?
CtBP-E1A blk: inconclusive; Six1-Eya2 inh: -14.7; D2 PAM: -1.8; TRPV1 PAM: 6.1; TRPML1 blocker: 5.4; TRPML1 agonist: 1.6

How did O=C(c1ccc(F)cc1)c1c[nH]c(C(=O)NCCCN2CCOCC2)c1 do in these assays?
CtBP-E1A blk: 1.7; Six1-Eya2 inh: -2.3; D2 PAM: -13.3; TRPV1 PAM: 5.7; TRPML1 blocker: 1.1; TRPML1 agonist: 0.1

What do the screens show for `Cc1ccc(S(=O)(=O)Cc2ccc(C(=O)NCCCN3CCN(C)CC3)o2)cc1`?
CtBP-E1A blk: 5.3; Six1-Eya2 inh: -0.5; D2 PAM: 0.0; TRPV1 PAM: -5.4; TRPML1 blocker: 4.5; TRPML1 agonist: 0.4

Results for c1ccc(-n2c3ccccc3c3ccccc32)cc1 ?
CtBP-E1A blk: 36.8; Six1-Eya2 inh: 7.1; D2 PAM: 2.7; TRPV1 PAM: 5.1; TRPML1 blocker: -0.7; TRPML1 agonist: 0.8

Results for COc1ccc(NC(=O)c2cccc(S(=O)(=O)N3CCCCC3)c2)c(OC)c1 ?
CtBP-E1A blk: -17.8; Six1-Eya2 inh: -9.1; D2 PAM: -15.7; TRPV1 PAM: 2.7; TRPML1 blocker: 8.1; TRPML1 agonist: -1.4

How did COc1ccc(CCNC(=O)CCNC(=O)c2ccc(Cl)cc2)cc1OC do in these assays?
CtBP-E1A blk: 13.5; Six1-Eya2 inh: 3.9; D2 PAM: 14.4; TRPV1 PAM: 3.0; TRPML1 blocker: -0.8; TRPML1 agonist: -0.8

Results for CCOc1ccc(NC(=O)Cn2nnc(-c3ccc(C(N)=O)cc3)n2)cc1S(=O)(=O)N1CCCC1 ?
CtBP-E1A blk: 6.3; Six1-Eya2 inh: -26.5; D2 PAM: -21.7; TRPV1 PAM: -4.3; TRPML1 blocker: 11.8; TRPML1 agonist: 0.1

What do the screens show for `CC1CCC(NC(=O)CN(C)S(=O)(=O)c2ccc3c(c2)c(=O)n(C)c(=O)n3C)CC1` (stereo not given)?
CtBP-E1A blk: -4.2; Six1-Eya2 inh: -3.5; D2 PAM: 0.4; TRPV1 PAM: -9.0; TRPML1 blocker: -6.1; TRPML1 agonist: 0.9

What do the screens show for `CCN(CC)CCN1C(=O)C(=O)/C(=C(/O)c2cccc(OC)c2)C1c1ccccn1` (stereo not given)?
CtBP-E1A blk: -1.8; Six1-Eya2 inh: -5.0; D2 PAM: 2.2; TRPV1 PAM: -1.0; TRPML1 blocker: 9.0; TRPML1 agonist: 0.3

What do the screens show for `O=C(CCN1CCCCC1c1cccnc1)NCc1ccccc1` (stereo not given)?
CtBP-E1A blk: 0.0; Six1-Eya2 inh: 20.6; D2 PAM: -6.1; TRPV1 PAM: 13.0; TRPML1 blocker: -3.1; TRPML1 agonist: 0.1

What do the screens show for `CCOC(=O)c1cc(C#N)c(Oc2ccccc2OC)nc1-c1ccccc1`?
CtBP-E1A blk: 18.1; Six1-Eya2 inh: 26.3; D2 PAM: -21.4; TRPV1 PAM: 2.4; TRPML1 blocker: -13.0; TRPML1 agonist: 2.1

How did COC(=O)c1ccc(CNC(=O)c2ccc3c(c2)S(=O)(=O)N=C2CCCCCN23)cc1 do in these assays?
CtBP-E1A blk: -7.1; Six1-Eya2 inh: 2.3; D2 PAM: -4.7; TRPV1 PAM: 7.1; TRPML1 blocker: 3.8; TRPML1 agonist: 2.0

How did CC(C)(C)CC(=O)Nc1nn[nH]n1 do in these assays?
CtBP-E1A blk: -12.4; Six1-Eya2 inh: 3.0; D2 PAM: -6.7; TRPV1 PAM: -3.5; TRPML1 blocker: 14.6; TRPML1 agonist: 0.9

Results for Cc1ccc(N2C(=O)C3C(C2=O)C2C=CC3C23CC3)cc1 (stereo not given) ?
CtBP-E1A blk: 7.2; Six1-Eya2 inh: 1.7; D2 PAM: -9.6; TRPV1 PAM: inconclusive; TRPML1 blocker: 3.2; TRPML1 agonist: -0.6

How did NC(=O)COc1cccc2cccnc12 do in these assays?
CtBP-E1A blk: -4.6; Six1-Eya2 inh: -1.7; D2 PAM: 6.2; TRPV1 PAM: -5.4; TRPML1 blocker: -5.6; TRPML1 agonist: -0.1

How did S=C1N(c2ccccc2)C(c2ccc(Cl)cc2)N2CCCN12 (stereo not given) do in these assays?
CtBP-E1A blk: 0.2; Six1-Eya2 inh: 5.4; D2 PAM: -17.3; TRPV1 PAM: -4.8; TRPML1 blocker: -11.6; TRPML1 agonist: -0.2

How did CCn1c(/C(C#N)=C(\O)CCc2ccccc2)nc2ccccc21 do in these assays?
CtBP-E1A blk: 3.6; Six1-Eya2 inh: 6.8; D2 PAM: -9.8; TRPV1 PAM: -3.0; TRPML1 blocker: -7.9; TRPML1 agonist: 0.0

2 successive compounds already listed:
Results for COc1ccc(NC(C)=O)cc1CP(=O)(c1ccccc1)c1ccccc1 ?
CtBP-E1A blk: 1.9; Six1-Eya2 inh: -4.7; D2 PAM: -2.9; TRPV1 PAM: 1.7; TRPML1 blocker: 2.1; TRPML1 agonist: 0.2

Results for CC(=O)Nc1ccc(N(C(=O)CNC(=O)c2ccco2)C(C(=O)NCc2ccco2)c2ccccc2)cc1 (stereo not given) ?
CtBP-E1A blk: -11.4; Six1-Eya2 inh: -7.7; D2 PAM: -11.6; TRPV1 PAM: -3.8; TRPML1 blocker: -15.7; TRPML1 agonist: -0.1

Further compounds follow:
Results for CCN(CC(=O)NCc1cccs1)C(=O)C1CC(=O)N(c2ccc(OC)cc2OC)C1 (stereo not given) ?
CtBP-E1A blk: 3.6; Six1-Eya2 inh: 10.5; D2 PAM: -4.8; TRPV1 PAM: 4.6; TRPML1 blocker: -6.9; TRPML1 agonist: -0.2

What do the screens show for `O=C(NCC(c1cccs1)N1CCOCC1)C1CCN(S(=O)(=O)c2cccc(C(F)(F)F)c2)CC1` (stereo not given)?
CtBP-E1A blk: 11.6; Six1-Eya2 inh: 11.2; D2 PAM: 14.1; TRPV1 PAM: 3.8; TRPML1 blocker: -1.1; TRPML1 agonist: -0.1

How did COc1ccc(N2C(=O)CC(c3ccc(OC(C)C)cc3)C2=O)cc1 (stereo not given) do in these assays?
CtBP-E1A blk: -8.4; Six1-Eya2 inh: 7.8; D2 PAM: -6.9; TRPV1 PAM: -0.7; TRPML1 blocker: -8.2; TRPML1 agonist: -0.6

How did COc1ccc(Nc2nc(C)c(-c3ccccc3)s2)cc1 do in these assays?
CtBP-E1A blk: -13.1; Six1-Eya2 inh: -14.8; D2 PAM: -3.5; TRPV1 PAM: -7.5; TRPML1 blocker: -22.5; TRPML1 agonist: 4.8

Results for O=C(CCl)Nc1nc(-c2ccco2)c(-c2ccco2)s1 ?
CtBP-E1A blk: -17.7; Six1-Eya2 inh: -25.1; D2 PAM: 13.4; TRPV1 PAM: 20.5; TRPML1 blocker: -17.9; TRPML1 agonist: -0.8

How did CCN(CC)C(=O)c1[nH]cnc1C(=O)NCc1ccc(CNC(=O)OC(C)(C)C)cc1 do in these assays?
CtBP-E1A blk: 2.1; Six1-Eya2 inh: 1.9; D2 PAM: -0.2; TRPV1 PAM: 3.2; TRPML1 blocker: 12.6; TRPML1 agonist: -0.2
